Ecoli growth: E. coli growth inhibition | AID 1053175 | OD600 absorbance (test concentration not listed) | Escherichia coli growth, OD600, 23 h; stronger effect = lower value | actives 0.21% (n = 330,000);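 active = OD600 absorbance below the run mean of sample wells minus 3.6 SD, in any replicate, cut at about 0.56 in these data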;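 note: stock transfer was 300 nL into about 60 µL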
Vif TR-FRET: HIV-1 Vif–A3G interaction blockers – biochemical, TR-FRET, GST-Vif 1-94, biotin-A3G peptide, dose response retest, primary screen (AID 1117319); TR-FRET GST-Vif / biotin-A3G peptide binding; higher % means a stronger effect; test concentration not given here; strong numbers were not always called active; one-dose inhibition, %; IC50 in µM for titrated hits; actives 0.57% (n = 260,000);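 active = above the screen mean plus three standard deviations and confirmed in dose response; inconclusive = results disagree or hit not tested in dose response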;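 note: Vif residues 1-94 fused to GST binding biotinylated APOBEC3G peptide 110-148; 0% = full assay without inhibitor and 100% = GST in place of GST-Vif; retest series ran down from 100 µM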
ALR inh: inhibitors of human sulfhydryl oxidase ALR; actives 3.8% (n = 290,000); purified ALR, DTT oxidation, H2O2 HRP-luminol luminescence; P55789; inhibition, % (test concentration not listed);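 active = mean and each replicate at 75% or more; inconclusive = only one of the two met; inactive = neither met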;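 note: stock transfer was 7.5 nL into about 7.5 µL; 0% = neutral wells and 100% = wells with inactivated enzyme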
Target sequence (P55789 whole entry, looked up): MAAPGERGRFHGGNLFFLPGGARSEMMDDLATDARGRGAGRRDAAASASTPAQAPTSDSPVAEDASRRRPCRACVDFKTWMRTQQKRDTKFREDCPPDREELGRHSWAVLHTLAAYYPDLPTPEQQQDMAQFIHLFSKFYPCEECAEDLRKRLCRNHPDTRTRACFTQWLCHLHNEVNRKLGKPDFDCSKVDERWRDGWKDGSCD
FGF22 binding: shifts melting point of recombinant human FGF22; Q9HCT0; recombinant FGF22 thermal shift, SYPRO orange fluorescence; percent of sucrose octasulfate shift, DMSO zero; calls only at 9.99 µM; actives 1.5% (n = 340,000); AID 651658;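 active = melting point raised past a set limit in the mean and every replicate; inconclusive = no clear call; three in four hits are not shown here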
Target sequence (Q9HCT0 whole entry, looked up): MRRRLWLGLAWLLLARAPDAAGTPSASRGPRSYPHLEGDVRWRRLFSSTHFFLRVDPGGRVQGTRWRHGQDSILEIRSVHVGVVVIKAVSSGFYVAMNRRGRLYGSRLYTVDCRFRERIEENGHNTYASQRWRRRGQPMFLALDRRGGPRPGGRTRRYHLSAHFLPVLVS
rRNA inh HTS: selective bacterial rRNA inhibition in E. coli | E. coli WT GFP vs humanized-ribosome RFP mutants, fluorescence, 24 h; stronger effect = lower value; DMSO median 0, no signal -100 | GFP signal change (wild-type ribosome), % (concentration not given with the values) | actives 1.6% (n = 350,000) | AID 720706;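 active = significant combined selectivity score with lowered wild-type GFP, culture density cut under 30%, mutant RFP and density less affected; inactive = any of these conditions unmet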; note: one replicate is shown; some compounds called inactive have numbers as strong as hits
MLL AF4-AF9 inh: inhibitors of human MLL-AF4/AF9 interaction | P42568 | AlphaScreen, biotin-AF4 peptide binding to FLAG-AF9 | inhibition, % at 10 µM | actives 0.47% (n = 350,000) | AID 651704;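 active = every replicate reaching a set inhibition limit, whatever the replicate mean, cut at about 25% in these data; inconclusive = mean inhibition reaches that limit but some replicates miss it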;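 note: 0% = plate neutral control median and 100% = total signal loss; the record names both 10 and 1 µM as test concentration; the first replicate is given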
Target sequence (P42568 whole entry, looked up): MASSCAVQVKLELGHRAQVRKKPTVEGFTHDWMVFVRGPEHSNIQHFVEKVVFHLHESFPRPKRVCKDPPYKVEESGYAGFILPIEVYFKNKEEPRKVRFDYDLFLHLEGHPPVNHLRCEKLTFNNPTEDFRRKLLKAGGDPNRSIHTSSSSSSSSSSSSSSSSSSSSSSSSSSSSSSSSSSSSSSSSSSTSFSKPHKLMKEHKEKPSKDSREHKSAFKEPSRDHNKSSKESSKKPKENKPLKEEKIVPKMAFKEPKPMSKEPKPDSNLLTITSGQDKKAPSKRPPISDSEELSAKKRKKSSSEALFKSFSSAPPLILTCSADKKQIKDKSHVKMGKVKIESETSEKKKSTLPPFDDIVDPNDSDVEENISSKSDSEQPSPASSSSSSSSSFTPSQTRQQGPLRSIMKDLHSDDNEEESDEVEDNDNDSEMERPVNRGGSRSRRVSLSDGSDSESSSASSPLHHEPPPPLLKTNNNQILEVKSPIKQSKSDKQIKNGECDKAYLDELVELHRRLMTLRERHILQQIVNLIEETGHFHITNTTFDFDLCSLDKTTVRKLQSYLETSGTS
HNF4A DNA FP: change in binding of human HNF4 alpha to DNA. P41235. HNF4a-FITC DNA binding, fluorescence polarization, 1 h. activity change, % at 10 µM. actives 0.3% (n = 360,000); in the data active = activity change above about 30%, passing the limit was not always enough;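 note: controls were the assay level and a saturating level of protein; the project sought stronger binding though the title names inhibitors; some compounds called inactive have numbers as strong as hits; positive values seem to mean higher polarization but the record does not say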
rRNA inh HTS OD600: also measured in rRNA inh HTS; calls as there; OD600 change, %; measured here: OD600 growth;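 optical density of the mix in the first replicate; 0 = DMSO median and -100 = no signal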
rRNA inh HTS RFP: also measured in rRNA inh HTS; calls as there; RFP signal change, %; measured here: RFP humanized mutant strains;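 first replicate; 0 = DMSO median and -100 = no signal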
Numbers without * were called inactive; & = joins results of further samples.

What do the screens show for `C[C@H]1CCCCO[C@H](CN(C)S(=O)(=O)c2ccccc2)[C@@H](C)CN([C@@H](C)CO)C(=O)c2cc(NS(C)(=O)=O)ccc2O1`?
FGF22 binding: inactive; rRNA inh HTS: -4; MLL AF4-AF9 inh: -1.3; rRNA inh HTS OD600: -2; rRNA inh HTS RFP: 4.3

How did COC(=O)Cn1c2c(c3cc(C)ccc31)CCCC2NC(C)c1ccccc1 (centres undefined) do in these assays?
Ecoli growth: 0.7; Vif TR-FRET: 7%; ALR inh: -4; FGF22 binding: inactive; rRNA inh HTS: -1; MLL AF4-AF9 inh: 4.2; HNF4A DNA FP: 2.9; rRNA inh HTS OD600: -4; rRNA inh HTS RFP: 8.6

How did CCNC(=O)C[C@@H]1C=C[C@H](NS(=O)(=O)c2ccc(C)cc2)[C@@H](CO)O1 do in these assays?
FGF22 binding: inactive; rRNA inh HTS: 0; MLL AF4-AF9 inh: -1.3; rRNA inh HTS OD600: 5; rRNA inh HTS RFP: -3.1

How did CN(C)C(=O)NCc1ccc(S(N)(=O)=O)cc1 do in these assays?
Ecoli growth: 0.71; Vif TR-FRET: inconclusive; ALR inh: 1; HNF4A DNA FP: 1.6

Results for C[C@@H]1CN([C@H](C)CO)S(=O)(=O)c2ccc(C#C[C@@H](C)O)cc2O[C@H]1CN(C)C(=O)Nc1ccccc1 ?
FGF22 binding: inactive; rRNA inh HTS: 0; MLL AF4-AF9 inh: -1.4; rRNA inh HTS OD600: -2; rRNA inh HTS RFP: 0.5

How did O=C1CC(SCCc2nc3ccccc3[nH]2)C(=O)N1c1ccc(F)cc1 (centres undefined) do in these assays?
Ecoli growth: 0.68; Vif TR-FRET: 12%; ALR inh: -12; HNF4A DNA FP: -0.3

What do the screens show for `NNC(=O)CN1C(CN2CCOCC2)=Nc2ccc(Br)cc2C1c1ccccc1` (centres undefined)?
Ecoli growth: 0.77; Vif TR-FRET: -3%; ALR inh: 26; FGF22 binding: inactive; rRNA inh HTS: 5; MLL AF4-AF9 inh: 1.0; HNF4A DNA FP: 0.1; rRNA inh HTS OD600: -2; rRNA inh HTS RFP: 5.6

What do the screens show for `C[C@@H]1CN([C@@H](C)CO)C(=O)c2cc(NC(=O)c3ccccc3)ccc2O[C@@H](C)CCCCO[C@@H]1CN(C)C(=O)c1ccncc1`?
FGF22 binding: inactive; rRNA inh HTS: -3; MLL AF4-AF9 inh: -0.5; rRNA inh HTS OD600: 5; rRNA inh HTS RFP: 1.1

What do the screens show for `CCc1nc(SCC(=O)N2CCC(C)CC2)c2c(=O)n(C)c(=O)n(C)c2n1`?
Ecoli growth: 0.77; Vif TR-FRET: 7%; FGF22 binding: inactive; rRNA inh HTS: -23; MLL AF4-AF9 inh: -11; HNF4A DNA FP: 6.0; rRNA inh HTS OD600: -49; rRNA inh HTS RFP: -8.5

What do the screens show for `Cc1cccc(-n2c(O)c(C=Nc3c(C)n(C)n(-c4ccccc4)c3=O)c3ccccc3c2=O)n1`?
Ecoli growth: 0.64&0.68; Vif TR-FRET: -5%&-1%; FGF22 binding: inactive; rRNA inh HTS: 9; MLL AF4-AF9 inh: 1.3; HNF4A DNA FP: -3.1&0.4; rRNA inh HTS OD600: 24; rRNA inh HTS RFP: 0.6

Results for COCC(=O)Nc1nc(-c2ccc([N+](=O)[O-])cc2)cs1 ?
Ecoli growth: 0.68; Vif TR-FRET: -9%; ALR inh: 98*; FGF22 binding: inactive; rRNA inh HTS: 14; MLL AF4-AF9 inh: -0.7; HNF4A DNA FP: -0.9; rRNA inh HTS OD600: 8; rRNA inh HTS RFP: 1.6

How did COc1ccc(NC(=O)Nc2ccc3c(c2)C(=O)N([C@@H](C)CO)C[C@H](C)[C@@H](CN(C)S(=O)(=O)c2ccc(Cl)cc2)OCCCC[C@H](C)O3)cc1 do in these assays?
FGF22 binding: inactive; rRNA inh HTS: 7; MLL AF4-AF9 inh: 3.8; rRNA inh HTS OD600: 10; rRNA inh HTS RFP: -3.1

What do the screens show for `C[C@@H]1CN([C@H](C)CO)C(=O)c2cc(NS(=O)(=O)c3cccs3)ccc2O[C@H]1CN(C)Cc1ccc(C(=O)O)cc1`?
FGF22 binding: inactive; rRNA inh HTS: -1; MLL AF4-AF9 inh: -1.6; rRNA inh HTS OD600: 3; rRNA inh HTS RFP: -2.2

What do the screens show for `CN(C)C(=O)c1ccccc1Sc1cc(Cl)ccc1Cl`?
Ecoli growth: 0.77; Vif TR-FRET: 6%; ALR inh: 1; HNF4A DNA FP: 3.1

What do the screens show for `O=C(CCCCCNC(=O)c1ccccc1)N/N=C/c1ccco1`?
Vif TR-FRET: 10%; ALR inh: -3; FGF22 binding: inactive; rRNA inh HTS: 12; MLL AF4-AF9 inh: -5.8; HNF4A DNA FP: -7.1; rRNA inh HTS OD600: 3; rRNA inh HTS RFP: -1.0

How did COc1ccc(Cn2ccnc2)cc1[N+](=O)[O-] do in these assays?
Ecoli growth: 0.69; ALR inh: -11; FGF22 binding: inactive; rRNA inh HTS: 4; MLL AF4-AF9 inh: -3.6; HNF4A DNA FP: -5.1; rRNA inh HTS OD600: 6; rRNA inh HTS RFP: 0.7

What do the screens show for `O=C(COC(=O)c1cccc(S(=O)(=O)NCc2ccccc2)c1)NCC1CCCO1` (centres undefined)?
Ecoli growth: 0.7; Vif TR-FRET: -2%; ALR inh: -5; rRNA inh HTS: -3; MLL AF4-AF9 inh: -11; HNF4A DNA FP: 1.3; rRNA inh HTS OD600: 2; rRNA inh HTS RFP: -1.8

Results for COc1ccc(CN2[C@@H](CO)[C@@H]3c4ccccc4N(C(=O)Nc4ccccc4)C[C@@H]32)cc1 ?
FGF22 binding: inactive; rRNA inh HTS: -2; MLL AF4-AF9 inh: -1.1; rRNA inh HTS OD600: -1; rRNA inh HTS RFP: 2.8

What do the screens show for `O=C(NCCC(=O)N1CCN(S(=O)(=O)c2ccccc2F)CC1)Nc1ccccc1`?
Ecoli growth: 0.68; ALR inh: -7; FGF22 binding: inactive; rRNA inh HTS: 14; MLL AF4-AF9 inh: 0.9; HNF4A DNA FP: 2.3; rRNA inh HTS OD600: 13; rRNA inh HTS RFP: 0.7

Results for COC(=O)CNc1cc(S(=O)(=O)N2CCCCC2)ccc1Oc1cccc(C)c1 ?
Ecoli growth: 0.65; Vif TR-FRET: 1%; ALR inh: 1; FGF22 binding: inactive; rRNA inh HTS: -12; MLL AF4-AF9 inh: -2.4; HNF4A DNA FP: -0.8; rRNA inh HTS OD600: -19; rRNA inh HTS RFP: -9.6

How did Cc1ccccc1NC(=O)COC(=O)CCSc1ccccc1 do in these assays?
Ecoli growth: 0.71; Vif TR-FRET: -4%; ALR inh: -5; FGF22 binding: inactive; rRNA inh HTS: 1; MLL AF4-AF9 inh: 0.4; HNF4A DNA FP: 4.5; rRNA inh HTS OD600: -13; rRNA inh HTS RFP: 1.6

Results for Cc1ccc(-c2cn(-c3ccccc3F)c(=S)[nH]2)cc1 ?
Ecoli growth: 0.67; Vif TR-FRET: -15%; ALR inh: 72; FGF22 binding: inactive; rRNA inh HTS: -3; MLL AF4-AF9 inh: 0.8; HNF4A DNA FP: 1.2; rRNA inh HTS OD600: -3; rRNA inh HTS RFP: 3.6

How did CC(C)Oc1ccc(CSc2ncn[nH]2)cc1 do in these assays?
Ecoli growth: 0.68; Vif TR-FRET: -2%; ALR inh: 1; FGF22 binding: inactive; rRNA inh HTS: 9; MLL AF4-AF9 inh: -1.2; HNF4A DNA FP: 3.8; rRNA inh HTS OD600: 1; rRNA inh HTS RFP: 1.5

What do the screens show for `CC(C)CN(C(=O)CSc1nnnn1C)C1CCS(=O)(=O)C1` (centres undefined)?
Ecoli growth: 0.66; Vif TR-FRET: 2%; ALR inh: -5; FGF22 binding: inactive; rRNA inh HTS: 17; MLL AF4-AF9 inh: -2.4; HNF4A DNA FP: -0.4; rRNA inh HTS OD600: 13; rRNA inh HTS RFP: 3.1

What do the screens show for `COc1ccccc1-c1noc(CCCC(=O)N2CCOCC2)n1`?
Ecoli growth: 0.66; Vif TR-FRET: -6%; ALR inh: -10; FGF22 binding: inactive; rRNA inh HTS: 7; MLL AF4-AF9 inh: -7.6; HNF4A DNA FP: -1.6; rRNA inh HTS OD600: 12; rRNA inh HTS RFP: -0.1

How did CCOC(=O)CCCSc1nnc(CCCCCN2C(=O)c3cccc4cccc(c34)C2=O)o1 do in these assays?
Ecoli growth: 0.75; ALR inh: -4; HNF4A DNA FP: -2.2

Results for CCOC(=O)c1cc(=O)c2c([N+](=O)[O-])ccc(OC)c2o1 ?
Ecoli growth: 0.71; Vif TR-FRET: 4%; ALR inh: -2; FGF22 binding: inactive; rRNA inh HTS: 2; MLL AF4-AF9 inh: 0.4; HNF4A DNA FP: -3.3; rRNA inh HTS OD600: -18; rRNA inh HTS RFP: 7.4

Results for COc1ccc(S(=O)(=O)Nc2ccccn2)c(C)c1C ?
Ecoli growth: 0.71; Vif TR-FRET: -2%; ALR inh: -1; HNF4A DNA FP: 4.0

How did COc1ccc(C(=O)/C(=C/N(C)C)S(=O)(=O)c2ccccc2)cc1 do in these assays?
Ecoli growth: 0.69; Vif TR-FRET: -4%; ALR inh: -14; FGF22 binding: inactive; rRNA inh HTS: 4; MLL AF4-AF9 inh: 0.5; HNF4A DNA FP: -5.5; rRNA inh HTS OD600: 0; rRNA inh HTS RFP: 0.1

Results for O=C(C[C@@H]1C[C@H]2c3cc(NC(=O)Cc4ccncc4)ccc3O[C@H]2[C@H](CO)O1)NCc1ccccn1 ?
FGF22 binding: inactive; rRNA inh HTS: 0; MLL AF4-AF9 inh: 2.0; rRNA inh HTS OD600: 11; rRNA inh HTS RFP: 0.3

Results for CC(C)NC(=O)Nc1ccc2c(c1)CC(=O)N([C@H](C)CO)C[C@@H](C)[C@H](CN(C)CC1CCCCC1)O2 ?
FGF22 binding: inactive; rRNA inh HTS: 1; MLL AF4-AF9 inh: 1.8; rRNA inh HTS OD600: -1; rRNA inh HTS RFP: -0.3

How did Cc1coc2cc3oc(=O)c(CCC(=O)NCC(=O)O)c(C)c3cc12 do in these assays?
Ecoli growth: 0.62; Vif TR-FRET: -4%; ALR inh: 46; FGF22 binding: inactive; rRNA inh HTS: 2; MLL AF4-AF9 inh: -4.2; HNF4A DNA FP: -0.5; rRNA inh HTS OD600: 9; rRNA inh HTS RFP: 2.1

Results for Cc1cccc(NC(=O)/C(C#N)=C/c2ccc(Sc3ccccc3)o2)c1C ?
Ecoli growth: 0.7; Vif TR-FRET: -4%; ALR inh: -5; FGF22 binding: inactive; rRNA inh HTS: 7; MLL AF4-AF9 inh: -2.1; HNF4A DNA FP: 1.1; rRNA inh HTS OD600: 10; rRNA inh HTS RFP: 3.6

Results for C/C=C(/C(=C/C)c1ccc(O)cc1)c1ccc(O)cc1 ?
Vif TR-FRET: -3%; FGF22 binding: inactive; MLL AF4-AF9 inh: -0.6&3.1; HNF4A DNA FP: -2.2

What do the screens show for `Cc1ccc(CN2C(=O)CCC2C(=O)N2CCN(c3ccccc3)CC2)cc1` (centres undefined)?
Ecoli growth: 0.65; ALR inh: inconclusive; FGF22 binding: inactive; rRNA inh HTS: 5; MLL AF4-AF9 inh: -62; HNF4A DNA FP: 4.1; rRNA inh HTS OD600: 2; rRNA inh HTS RFP: -0.7

Assay outcomes from PubChem BioAssay.

Some of the compounds tested, so the mix of outcomes need not match the whole.
